Six1-Eya2 inh = Six1/Eya2 interaction inhibition | AlphaScreen GST-Six1/His-Eya2 binding, biochemical; stronger effect = lower value; control for the full effect not named in the record | activity change, % (test concentration not listed) | actives 0.56% (n = 360,000) | AID 651725; in the data active = activity change below about -65%; inconclusive = about -30% to -65%; inactive = above about -30%; also: % is scaled to controls: 0 for no effect and ±100 for the full control effect; compound concentration not given in the record
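AlphaScreen luminescence read after one hour at 37 °C in darkness. Pin-transferred compounds met GST-Six1 and His-Eya2 protein (5X stock 250 nM/500 nM) plus glutathione donor and Ni-chelate acceptor beads (5X, 50 ug/mL).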
PINK1 expr mod = modulators of PINK1 expression | actives 0.2% (n = 410,000) | PINK1 immunofluorescence, high-content cytometry, 24 h | Potency, µM (titrated, usually from 76.6 µM), for the others: top-dose activation (PINK1 increase), actives largely listed as activators | AID 624263; active = well fitted activation curve with a large enough effect; inconclusive = small, poorly fitted or top-dose-only effect; inactive = flat fitted curve, though single readings scatter; cell line not stated here;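 also: potency is read from the fitted curve at half-maximal effect; % of control where 0% means no effect; nearly all actives have a fitted effect of over 65% in size; a mitochondrial uncoupler was the plate control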
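Compound titrations (5 concentrations, 24 h) on a stable cell line; DMSO and CCCP controls. Endpoint: fixed-cell PINK1 immunofluorescence with mitochondrial, cell and nuclear markers, scanned by microplate cytometer.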
TRPML1 agonist = activates the human TRPML1 channel. Q9GZU1. TRPML1-expressing cells, Ca2+ dye fluorescence, FDSS; host cell line not named in the record; reference of the full effect not given here. activation, % (test concentration not listed). actives 0.12% (n = 410,000). AID 624414; in the data active = activation above about 50%; inconclusive = about 30% to 50%; inactive = below about 30%; also: 0% is about no effect; the text of the record puts the active cut at 80%
Target sequence (Q9GZU1 whole entry, looked up): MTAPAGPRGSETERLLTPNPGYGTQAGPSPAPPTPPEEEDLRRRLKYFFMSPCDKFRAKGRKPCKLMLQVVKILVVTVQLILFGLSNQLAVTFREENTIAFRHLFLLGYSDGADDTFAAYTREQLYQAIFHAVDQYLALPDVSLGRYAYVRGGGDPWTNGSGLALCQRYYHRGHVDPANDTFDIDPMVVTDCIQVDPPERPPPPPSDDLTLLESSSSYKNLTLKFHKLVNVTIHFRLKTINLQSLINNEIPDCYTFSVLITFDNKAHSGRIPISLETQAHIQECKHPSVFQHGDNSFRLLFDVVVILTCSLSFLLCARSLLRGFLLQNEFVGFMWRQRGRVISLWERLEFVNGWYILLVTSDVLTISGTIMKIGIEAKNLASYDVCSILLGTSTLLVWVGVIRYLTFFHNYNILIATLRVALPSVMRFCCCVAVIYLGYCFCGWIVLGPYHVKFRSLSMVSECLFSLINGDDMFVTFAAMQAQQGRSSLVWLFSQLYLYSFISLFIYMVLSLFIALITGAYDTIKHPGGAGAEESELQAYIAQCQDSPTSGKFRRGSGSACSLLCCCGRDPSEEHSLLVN
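Agonist activity was taken from a 110 s kinetic Ca2+ dye read on the FDSS after pinning compounds onto TRPML1-DL cells. The cells were seeded at 1,500/well with Tet inducer, incubated about 16 h, then dye-loaded at room temperature.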
D2 agonist = human D2 receptor agonism in beta-arrestin assay; P14416; DiscoveRx PathHunter D2 beta-arrestin, luminescence, 90 min; 100% = 57 uM dopamine signal; activation, % (concentration not given with the values); actives 0.084% (n = 360,000); AID 624465; in the data active = activation above about 40%; inconclusive = about 15% to 40%; inactive = below about 15%; also: compound concentration not given in the record; the text of the record calls up to 30% inactive
Target sequence (P14416 whole entry, looked up): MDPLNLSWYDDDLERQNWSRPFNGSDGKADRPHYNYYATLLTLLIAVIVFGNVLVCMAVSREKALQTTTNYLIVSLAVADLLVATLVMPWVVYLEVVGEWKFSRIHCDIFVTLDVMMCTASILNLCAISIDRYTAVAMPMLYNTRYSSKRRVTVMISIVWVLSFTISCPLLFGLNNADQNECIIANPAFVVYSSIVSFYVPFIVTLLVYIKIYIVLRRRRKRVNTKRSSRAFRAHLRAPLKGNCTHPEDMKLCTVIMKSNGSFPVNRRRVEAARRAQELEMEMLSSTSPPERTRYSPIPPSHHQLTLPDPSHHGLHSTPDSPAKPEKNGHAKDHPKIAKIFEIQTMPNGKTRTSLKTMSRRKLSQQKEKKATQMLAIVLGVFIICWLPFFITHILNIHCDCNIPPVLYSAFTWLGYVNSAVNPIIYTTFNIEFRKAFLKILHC
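DiscoveRx PathHunter D2 beta-arrestin cells (2,100/well) attached overnight, then compound-stimulated 90 min at 37 C in HBSS/10 mM HEPES/0.1% Tween-20 buffer; beta-galactosidase complementation read by luminescence after 1 h at ambient temperature. Dopamine 57 uM final (EC100) as control.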
D2 potentiator = human D2 receptor positive allosteric modulation; P14416; DiscoveRx D2 beta-arrestin cells, luminescence, 90 min; 100% = 57 uM dopamine signal; potentiation, % (test concentration not listed); actives 0.23% (n = 360,000); AID 624464; active = potentiation of 50% or more; inconclusive = 30% to 50%; inactive = 30% or less;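 also: compound concentration not given in the record; tested on top of an EC20 dose of dopamine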
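D2 cells co-treated with compound plus 50 nM dopamine (EC20) for 90 min at 37 deg C to detect potentiation. Beta-arrestin recruitment was read as enzyme-fragment luminescence after 1 h at ambient temperature. Full response was set by 57 uM dopamine.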
TRPML1 blocker = human mucolipin-1 channel inhibition; TRPML1-inducible cells, Ca2+ dye fluorescence, FDSS; stronger effect = lower value; inhibition of EC80 agonist-evoked calcium signal; activity change, negative = inhibition, % (test concentration not listed); actives 0.02% (n = 390,000); in the data active means activity change below about -50%; inconclusive means about -30% to -50%; inactive means above about -30%;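 also: stimulus is agonist 54-4 at its EC80 concentration; % is scaled to controls: 0 for no effect and ±100 for the full control effect; compound concentration not given in the record; the text of the record puts the active cut at -80%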
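Calcium fluorescence in TRPML1-DL cells induced overnight with Tet: a 110 s read after compound pin addition, then a 110 s antagonist read after challenge with 54-4 at 4 uM final (EC80).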
* hit, by the source's call; ? = inconclusive; · = not tested or not shown; & = joins results of further samples; [ ] = another dose, or the depositor's remark. This is a random part of the collection; about 1% have a hit in one of these screens.

SMILES	Six1-Eya2 inh	PINK1 expr mod	TRPML1 agonist	D2 agonist	D2 potentiator	TRPML1 blocker
O=C(CS(=O)(=O)Cc1ccccc1)NCCc1ccc(F)cc1	1	0.2%	0.7	-13	-13	-7
Cc1c(OC(C)C(=O)NCc2ccccn2)ccc2c3c(c(=O)oc12)CCC3 (stereo unspecified)	-2	0.5%	-1.2	2.0	9	-1
COc1ccc(-c2cc3c(=O)n(CC(=O)N4CCCCC4)ncn3n2)cc1	3	0.6%	-0.2	0.6	-7	9
O=C(COc1ccccc1F)NCC(c1ccco1)N1CCCC1 (stereo unspecified)	6	0.3%	-0.2	-2.2	-28	17
Cc1[nH]c2ccc(F)cc2c1CCN(Cc1cccnc1)C(=S)Nc1ccc(F)cc1	-16	0.7%	0.0	-10.0	-1	-2
COC(=O)C1=C(O)/C(=C\c2ccc(CNC(=O)C(=O)Nc3ccc(C)cc3)o2)N=C1C	20	17%	0.8	-3.1	-18	-10
O=C1CCc2cc(Br)ccc2O1	-1	-1.0%	-0.2	-0.7	-11	8
Cc1ccc(S(=O)(=O)N2CC(O)CC2C(=O)Nc2ccc3c(c2)CCC3)cc1 (stereo unspecified)	7	-0.9%	-0.5	0.7	-34	8
CC(=O)Oc1cccc(N2C(=O)c3ccc(C(=O)Nc4cccnc4)cc3C2=O)c1	0	-0.6%	1.9	0.8	0	-6
Cc1nc(C(C)N(C)Cc2nc(-c3ccc4c(c3)OCO4)no2)c(C)s1 (stereo unspecified)	-6	3.1%	0.4	-3.0	-17	3
COc1ccccc1C(=O)N1CCC(N2CCN(c3ccccc3OC)CC2)CC1	8	-0.1%	-0.5	0.0	-21	-8
CC1(C(=O)NCC2CCOCC2)Cc2c(-c3cccc(C(N)=O)c3)ccnc2O1 (stereo unspecified)	10	13%	0.2	-6.5	-8	-6
O=C(COC(=O)c1cccs1)Nc1ccccc1Cl	-2	0.9%	-0.4	-2.1	-3	-6
O=C(NCc1ccc2c(c1)OCO2)C1CCN(c2nccc(C(F)(F)F)n2)CC1	0	-0.3%	2.5	-3.9	-1	40
O=C(/C=C\c1cn(-c2ccccc2)nc1-c1ccccc1)Nc1nccs1	12	1.6%	-0.1	-0.3	7	-7
CCN(CC)c1ccc2cc(-c3nc(-c4cc(OC)c(OC)c(OC)c4)no3)c(=O)oc2c1	·	1.7%	?	·	·	-17
COc1ccccc1NC(=O)CSc1nnnn1-c1ccc(C)cc1	3	-5.0%	1.2	1.6	-8	8
Cc1ccc(/C=C2\C(=O)Nc3ccccc32)o1	-14	-6.3%	0.0	4.0	7	-9
CCc1nc2c(cnn2-c2ccc(Cl)cc2)c(=O)n1-c1ccc(OC)cc1	-5	1.0%	0.5	0.4	-9	13
CCCC[C@@H]1CC2=C(C(=O)OC(C)(C)O2)[C@H](c2ccc(C(C)C)cc2)O1	6	27%	-0.2	·	·	·
COc1ccc(-c2[nH]ncc2CN2CCC(OCc3ccccn3)CC2)c(F)c1	5	-1.0%	-0.8	-4.1	-14	-13
CC1(C)CC(=O)N(c2ccc(Cl)c(Cl)c2)C(=O)C1	-4	1.1%	-0.7	-1.6	-8	21
O=C(Nc1cccc(Cl)c1)c1ccc(Cn2cc(Cl)cn2)cc1	8	7.3%	-0.3	-4.4	-10	2
COc1ccc(-c2csc(C(O)c3ccccc3)n2)cc1 (stereo unspecified)	0	0.1%	-0.9	6.9	3	·
N/C(Cc1ccc(Cl)cc1Cl)=N\OC(=O)c1ccccc1F	51	6.3%	2.3	15	61*	-2

The list goes on:
SMILES	Six1-Eya2 inh	PINK1 expr mod	TRPML1 agonist	D2 agonist	D2 potentiator	TRPML1 blocker
COc1ccc(Cl)cc1NC(=O)Cn1c(=O)n2nc(C)nc2c2ccccc21	5	1.0%	0.6	-1.1	-5	-3
COc1cccc2sc(N3CCN(C(=O)CCS(=O)(=O)c4ccc(F)cc4)CC3)nc12	·	0.2%	1.1	·	·	-17
Cc1cc[n+]2cc(-c3cccc([N+](=O)[O-])c3)c(-c3cccc([N+](=O)[O-])c3)cc2c1	-2	0.4%	-1.8	-7.9	-5	15
CC1=C[C@@H](C)[C@@H](c2ccccc2)OC1=O	7	0.3%	2.0&0.3	-3.1	-5	2&-4
N#Cc1c(-c2ccc(F)cc2)cc(-c2cccnc2)nc1N	4	16%	1.3	0.1	2	9
COc1ccc(S(=O)(=O)N[C@H](C(=O)O)C(C)C)cc1	1	1.7%	-0.3	-1.1	8	1
CCc1ccc(-n2c(SCC(=O)c3ccc4c(c3)NC(=O)CO4)nc3ccccc3c2=O)cc1	8	4.2%	0.4	0.5	-1	-10
Cc1ccc2nc3c(cc(C(=O)NCC4CCCO4)c(=N)n3CCCOC(C)C)c(=O)n2c1 (stereo unspecified)	-6	-0.8%[38.3 µM]	-0.3	-5.7	-18	0
O=C(Nc1ccccc1C(=O)NCc1ccco1)c1ccccc1	-1	-0.3%	0.5	-5.4	5	-11
CCOC(=O)C1CCCN(C(=O)COc2ccc(S(=O)(=O)N3CCOCC3)cc2)C1 (stereo unspecified)	2	-1.0%	1.7	-9.3	0	21
O=C(O)C1Cc2ccccc2CN1C(=O)CCl (stereo unspecified)	-8	5.3%	-0.7	2.2	-4	-4
CN(C(=O)c1ccc2c(c1)CCO2)C(C)(C)C	-7	2.0%	-0.1	-3.7	-9	-6
CN(c1ccccc1)S(=O)(=O)c1cc(C(=O)N2CCN(c3ncccn3)CC2)ccc1Cl	5	3.9%	3.1	1.0	0	8
Fc1ccccc1Nc1nc(NCc2ccco2)nc(N2CCOCC2)n1	-9	-1.6%	1.9	-4.1	-5	21
Cc1ccnc(NS(=O)(=O)c2ccc(NC(=O)c3oc4ccccc4c3C)cc2)n1	-10	3.7%	0.0	1.6	17	14
Cc1ccc(C(=O)Nc2ccccc2N2CCCC2)cc1	-9	0.9%	-1.2	1.1	10	-9
Cc1c(C(=O)N2CCC(c3nc4ccccc4s3)CC2)oc2ccc(Cl)cc12	·	0.2%	-0.6	·	·	0
CC(=O)NC1=NN(C(C)=O)C(C)(c2ccc(C)cc2)S1 (stereo unspecified)	0	13%	0.5	-1.4	5	-5
CC(=O)c1sc(NC(=O)c2cccnc2Cl)nc1C	1	2.2%	-0.1	-4.6	-2	2
Brc1ccccc1OCCNCc1ccccc1	-3	1.8%	1.6	0.2	-17	-6
COc1cc(OC)nc(NC(=O)NS(=O)(=O)c2ccccc2Cl)n1	-1	-0.8%	-0.6	-1.8	-5	25
COc1ccc(OC)c(NC(=O)CN2C(=O)NC3(CCOc4ccccc43)C2=O)c1 (stereo unspecified)	-8	-0.3%	0.1	-2.6	-9	-5
CSc1nncn1/N=C/c1ccc([N+](=O)[O-])cc1	6	3.0%	-0.1	?	?	14
CC(=O)N/C(=C\c1ccc(C)cc1)C(=O)O	6	-0.6%	0.2	-4.4	-13	30
O=[N+]([O-])c1ccccc1/C=N\Nc1nccs1	0	-0.6%	-1.3	2.3	-7	10

Other compounds follow.
SMILES	Six1-Eya2 inh	PINK1 expr mod	TRPML1 agonist	D2 agonist	D2 potentiator	TRPML1 blocker
Cc1ccc(-c2cc(Cc3ccncc3)c(=O)[nH]n2)cc1	10	1.1%	-0.8	-8.4	-6	-4
COc1ccc(OC)c(NC(=O)C(Sc2ccccc2)c2ccccc2)c1 (stereo unspecified)	-9	0.8%	2.7	-3.8	12	-52*
CCCCCCCn1ccc(=N)cc1	1	?	0.9	-1.4	-21	7
CCOc1ccc(NS(=O)(=O)c2ccc(NC(C)=O)c(OC)c2)cc1	-2	-3.4%	-1.1	-1.6	-7	3
Cc1cccnc1NC(=O)Nc1ccccc1	-6	2.8%	·	-2.3	-10	·
Cc1nc([N+](=O)[O-])cn1CC(=O)Nc1ccc([N+](=O)[O-])cc1	0	2.4%	0.2	1.3	-2	29
CN(C(=O)CCc1nc2ccccc2c(=O)[nH]1)C1CCS(=O)(=O)C1 (stereo unspecified)	3	-0.4%	0.0	-9.5	-4	0
CCOC(=O)c1cnn(-c2ncnc3c2cnn3C)c1N	8	-1.3%	1.8	-6.4	-6	23
COc1cc(/C=C2\SC(=O)N(c3ccccc3Cl)C2=O)cc([N+](=O)[O-])c1O	-28	3.2%	2.4	-12	-9	31
Cc1cc(N2CCN(c3ccccc3)CC2)nc(-c2ccccc2O)n1	0	1.4%	1.7	0.4	2	24
Cc1[nH]c2ccccc2c1C(=O)C(=O)N1CCOCC1	4	0.9%	-0.4	-0.2	-11	5
O=C(CNC(=O)C1CCCCC1)NNC(=O)c1ccccc1Br	6	-0.7%	0.3	-2.6	-24	-9
Cc1ccc(C2=NN(S(C)(=O)=O)C(c3cccs3)C2)cc1 (stereo unspecified)	0	-2.3%	1.8	-6.7	-21	3
O=C(O)CC1S/C(=N\N=C/c2ccccc2)N(c2ccc(O)cc2)C1=O (stereo unspecified)	2	·	0.2	-0.1	-5	-3
CCn1c(SC(C)C(=O)OC)nnc1-c1c[nH]c2ccccc12 (stereo unspecified)	11	0.2%	0.1	6.2	1	12
CC(=O)Nc1ccc(NC(=O)C2CCCN(c3nnc(-n4cccc4)s3)C2)cc1 (stereo unspecified)	-16	0.3%	0.6	-3.9	3	21
CC(C)(Oc1ccc(Cl)cc1)C(=O)Nc1ccc2oc(-c3ccncc3)nc2c1	5	21%	-0.8	-2.4	2	-5
O=C(NCCN1CCOCC1)c1ccc(S(=O)(=O)Nc2ccccc2)cc1	4	-0.7%	-0.2	-0.2	-2	11
CCCCn1nnnc1C(c1cc2ccccc2o1)N1CCN(c2c(C)cccc2C)CC1 (stereo unspecified)	-3	3.0%	0.7	·	·	·
O=S(=O)(Nn1cnnc1)c1ccc2ccccc2c1	-11	9.0%	0.8	-0.3	2	-9
Cc1ccc(NC(=O)C(Cc2ccccc2)NC(=O)OCc2ccccc2)cc1C (stereo unspecified)	4	?	3.2	-3.7	-29	-7
COC(=O)c1ccc(CNC(=O)COC(=O)c2ccc(N(C)C)cc2)cc1	6	1.8%	2.4	2.4	-7	4
CCCN(CCC)C(=O)Cc1coc2ccc3ccccc3c12	-1	-0.2%	0.3	-5.8	-17	30
COc1ccccc1CCC(=O)Nc1ccc2c(c1)CN(Cc1ccc(CO)o1)CC2	1	2.0%	0.2	-3.5	-17	6
Cc1ccc(S(=O)(=O)NNC2=NS(=O)(=O)c3ccccc32)c(C)c1	-13	1.3%	0.0	0.9	-1	22

Quoted at random: 5 records from the list, in no set order.
SMILES	Six1-Eya2 inh	PINK1 expr mod	TRPML1 agonist	D2 agonist	D2 potentiator	TRPML1 blocker
Cc1ccc(S(=O)(=O)NNC2=NS(=O)(=O)c3ccccc32)c(C)c1	-13	1.3%	0.0	0.9	-1	22
Cc1cccnc1NC(=O)Nc1ccccc1	-6	2.8%	·	-2.3	-10	·
CCOc1ccc(NS(=O)(=O)c2ccc(NC(C)=O)c(OC)c2)cc1	-2	-3.4%	-1.1	-1.6	-7	3
Cc1ccc(C2=NN(S(C)(=O)=O)C(c3cccs3)C2)cc1 (stereo unspecified)	0	-2.3%	1.8	-6.7	-21	3
CCn1c(SC(C)C(=O)OC)nnc1-c1c[nH]c2ccccc12 (stereo unspecified)	11	0.2%	0.1	6.2	1	12
